Screens from PubChem BioAssay.
Beta cell apopt – beta cell apoptosis inhibition; AID 435005; protection from apoptosis, % (concentration not given with the values); actives 0.8% (n = 300,000); INS-1E cytokine-induced death, ATP luminescence, 48 h; percent of positive-control rescue, neutral wells zero;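 active = all replicates at 75% or more, or half of them and the mean; inconclusive = half reach 75% but not the mean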;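 also: 0% = cytokine-treated negative control wells and 100% = positive control rescue; higher means more ATP so stronger rescue from cytokine killing; wells of about 40 µL received 100 nL stock; the first replicate is given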
T cruzi inh – T. cruzi replication inhibition; inhibition, % (concentration not given with the values); actives 1.4% (n = 300,000); T. cruzi beta-gal in NIH3T3, luminescence, 90 h;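 active = mean inhibition across valid replicates above about 55%, limit read from the data; inconclusive = mean below that limit but half or more replicates reach it; inactive = mean below it, under half of replicates reach it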;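 also: signal also drops with host cell toxicity which is not excluded here; 0% = plate median of DMSO wells and 100% = zero luminescence signal; higher percent means less beta-gal luminescence so fewer parasites; stock transfer was 50 nL into about 50 µL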
RanGTP-Imp inh – inhibitors of RanGTP-importin-beta interaction, primary screen, biochemical, FRET, CFP-Ran, YFP-importin-beta, homogeneous; cell-free CFP-Ran/YFP-importin-beta FRET ratio; actives 1.1% (n = 300,000); AID 2216; inhibition, % (no concentration beside the values);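 active = most replicates above 15%; inconclusive = exactly half above 15%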;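 also: 0% = DMSO wells and 100% = Ran loaded with GDP instead of GTP; wells of about 40 µL received 100 nL stock; the first replicate is given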
Vif A3G – HIV-1 Vif–A3G interaction blockers – biochemical, TR-FRET, GST-Vif 1-94, biotin-A3G peptide, dose response retest, primary screen (AID 1117319). one-dose inhibition, %; IC50 in µM for titrated hits. TR-FRET GST-Vif / biotin-A3G peptide binding; higher % means a stronger effect; test concentration not given here; strong numbers were not always called active. actives 0.57% (n = 260,000);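 active = above the screen mean plus three standard deviations and confirmed in dose response; inconclusive = results disagree or hit not tested in dose response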;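 also: Vif residues 1-94 fused to GST binding biotinylated APOBEC3G peptide 110-148; 0% = full assay without inhibitor and 100% = GST in place of GST-Vif; retest series ran down from 100 µM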
AF4-AF9 inh – MLL-AF4/AF9 protein interaction inhibition; P42568; inhibition, % at 10 µM; AlphaScreen, biotin-AF4 peptide binding to FLAG-AF9; AID 651704; actives 0.47% (n = 350,000);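 active = every replicate reaching a set inhibition limit, whatever the replicate mean, cut at about 25% in these data; inconclusive = mean inhibition reaches that limit but some replicates miss it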;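 also: 0% = plate neutral control median and 100% = total signal loss; the record names both 10 and 1 µM as test concentration; the first replicate is given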
Target sequence (P42568 whole entry, looked up): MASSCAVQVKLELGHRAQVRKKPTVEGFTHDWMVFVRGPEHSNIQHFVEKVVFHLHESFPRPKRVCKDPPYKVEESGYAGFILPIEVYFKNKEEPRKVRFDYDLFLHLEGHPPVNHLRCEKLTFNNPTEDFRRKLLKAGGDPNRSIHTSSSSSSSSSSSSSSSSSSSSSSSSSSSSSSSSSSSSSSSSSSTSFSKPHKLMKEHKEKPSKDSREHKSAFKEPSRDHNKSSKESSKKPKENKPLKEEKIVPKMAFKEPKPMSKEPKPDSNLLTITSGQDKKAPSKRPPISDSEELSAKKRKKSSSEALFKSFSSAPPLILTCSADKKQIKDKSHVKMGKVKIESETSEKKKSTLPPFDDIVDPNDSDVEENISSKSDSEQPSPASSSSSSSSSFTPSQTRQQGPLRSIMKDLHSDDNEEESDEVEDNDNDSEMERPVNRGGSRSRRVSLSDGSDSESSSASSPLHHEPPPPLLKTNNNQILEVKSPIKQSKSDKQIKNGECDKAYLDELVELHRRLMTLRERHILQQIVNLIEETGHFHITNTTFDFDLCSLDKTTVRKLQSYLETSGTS
A1 inh – inhibitors of the anti-apoptotic protein A1, read as caspase activation; MEF A1-2A-BIM cells, Caspase-Glo 3/7 luminescence, 3 h; percent of clofoctol response, vehicle zero; caspase activation, % (no concentration beside the values); actives 0.066% (n = 330,000);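 active = over half of replicate activation scores above 10%, or exactly half above 10 with the replicate mean above 10; inconclusive = replicate mean below 10 yet half the replicates above 10; inactive = over half of replicates below 10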;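 also: wells of about 30 µL received 50 nL stock; many hits fall short of the cut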
rRNA inh HTS – inhibitors of bacterial rRNA selective over humanized ribosomes | actives 1.6% (n = 350,000) | E. coli WT GFP vs humanized-ribosome RFP mutants, fluorescence, 24 h; stronger effect = lower value; DMSO median 0, no signal -100 | GFP signal change (wild-type ribosome), % (concentration not given with the values) | AID 720706;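 active = significant combined selectivity score with lowered wild-type GFP, culture density cut under 30%, mutant RFP and density less affected; inactive = any of these conditions unmet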; also: one replicate is shown; some compounds called inactive have numbers as strong as hits
Calb FLC – C. albicans growth modulation with fluconazole | C. albicans CaCi-2 (fluconazole-resistant clinical isolate) + fluconazole, Alamar Blue growth, 48 h | growth inhibition, % (no concentration beside the values) | actives 0.57% (n = 300,000);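 active = most replicates above 75%; inconclusive = exactly half above 75%; inactive = most below 75%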;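 also: all wells also contain fluconazole at 8 µg/ml as a sub-toxic cotreatment; 0% = median of DMSO wells and 100% = median of geldanamycin control wells; wells of about 8 µL received 7.5 nL stock; the first replicate is given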
rRNA inh HTS OD600 – also measured in rRNA inh HTS; calls as there; OD600 change, %; measured here: OD600 growth;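 optical density of the mix in the first replicate; 0 = DMSO median and -100 = no signal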
rRNA inh HTS RFP – recorded beside rRNA inh HTS, whose call it bears; RFP signal change, %; measured here: RFP humanized mutant strains;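 first replicate; 0 = DMSO median and -100 = no signal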
Numbers without * were called inactive; ? = inconclusive; / = no result given; & = joins results of further samples. This is a subset; the hit share may differ from the screen's.

SMILES	Beta cell apopt	T cruzi inh	RanGTP-Imp inh	Vif A3G	AF4-AF9 inh	A1 inh	rRNA inh HTS	rRNA inh HTS OD600	rRNA inh HTS RFP	Calb FLC
Cc1ccc(OCCC(=O)N(CCC(C)C)c2c(N)n(Cc3ccccc3)c(=O)[nH]c2=O)cc1	0.6	-4.3	2.5	-5.4%	/	0.4	/	/	/	4.7
CC(C)Cn1c(SC(C)C(=O)Nc2ccc(N3CCOCC3)cc2)nc2ccccc21 (centres undefined)	2.3	5.0	-2.2	2.1%	14.2	1.2	5.0	-3.8	-2.5	1.1
CN1CCN(C(=O)CCc2nc3ccccc3c(=O)[nH]2)CC1	-4.8	-10.9	-0.4	-1.5%	/	-0.5	/	/	/	-3.1
O=C(CN(Cc1ccc(F)cc1)C(=O)c1csnn1)NC1CCCC1	-3.0	-5.0	4.9	/	2.7	-0.3	2.3	6.7	-1.2	3.7
CCOC(=O)CN(C(=O)CNC(=O)c1cccs1)C(C(=O)NC1CCCCC1)c1cccnc1 (centres undefined)	-0.3	-0.1	?	5.2%	/	-1.5	/	/	/	3.7
Cc1ccc(-c2csc(NC(=S)NC(=O)c3cccs3)n2)cc1	2.2	5.3	-5.8	29.4%	/	0.3	/	/	/	-0.9
COc1ccc(Cl)cc1NC(=O)CN(C)CC(=O)Nc1ccc(Br)cc1	-10.4	8.5	-3.1	-7.3%	-3.8	0.9	-43.4	-41.0	-9.4	-1.5
Cn1c(N)c(S(=O)(=O)NCc2ccccc2)c(=O)n(C)c1=O	0.5	-11.2	1.7	/	-2.1	0.4	3.2	0.8	0.2	-3.7
O=C(O)CSCC(=O)Nc1ccc(S(=O)(=O)N2CCCCC2)cc1	-5.1	-1.7	-1.4	-7.6%	/	0.3	/	/	/	-2.1
O=[N+]([O-])c1ccc(COc2ncnc3ccccc23)cc1	-2.5	-0.6	1.0	6.0%	0.4	0.1	8.3	10.8	2.5	-9.1
CCCN(CC(=O)Nc1ccc(F)c(F)c1F)CC(=O)Nc1c(C)n(C)n(-c2ccccc2)c1=O	1.6	/	/	-11.7%	0.4	0.0	6.5	-6.9	1.5	/
Cc1ccc(NC(=O)C(C)S)cc1 (centres undefined)	-12.1	9.4	-0.8	?	-5.3	-0.3	1.1	13.1	-1.8	-0.3
Cc1ccc2c(c1)N(C(=O)c1ccco1)C(C)(C)c1ssc(=S)c1-2	-9.1	29.8	4.8	-1.2%	/	0.3	/	/	/	-8.0
CCCCOCCCNC(=O)c1cccs1	-5.0	5.5	0.6	-4.3%	/	-0.9	/	/	/	3.7
O=S(=O)(c1ccc(Br)s1)N1CCc2ccccc2C1	-3.0	13.0	-2.5	-0.7%&25.0%	-11.9	-0.3	0.0	-7.3	-0.3	10.0
COc1ccc(/C=N/NS(=O)(=O)c2ccc(C)cc2)cc1	-1.5	-0.4	1.4	-1.9%	-1.9	-1.2	1.4	0.7	2.9	4.4
O=C(O)c1ccc(Nc2nc(-c3cccnc3)nc3ccccc23)cc1	2.2	1.1	2.5	8.9%	/	0.2	/	/	/	-0.6
Cc1ccc[n+](C(C)C(=O)Nc2ccc(C)c([N+](=O)[O-])c2)c1 (centres undefined)	2.4	-8.6	0.4	-3.3%	/	-0.2	/	/	/	-2.7
Cc1ccccc1OCCC(=O)N(CC(=O)Nc1ccccc1C(F)(F)F)Cc1ccco1	-9.4	3.0	4.2	-3.0%	-0.7	0.4	5.7	3.5	-0.6	5.3
O=C1NC(Cc2ccccc2)c2nc3ccc(Br)cc3c(=O)n2-c2cc(Cl)ccc21 (centres undefined)	-3.4	/	/	/	3.9	0.2	11.3	5.9	1.4	/
CCOC(=O)c1ccc(NC(=O)CCc2nnc3ccc(N4CCCC4)nn23)cc1	4.8	3.8	0.5	/	-2.3	0.2	12.7	6.3	-2.2	16.6
CC1CN(C(=S)Nc2ccccc2F)CC(C)O1 (centres undefined)	/	-37.1	1.8	/	-5.2	-0.1	10.2	8.8	-0.3	-9.3
CC(C#N)Sc1nnc(-c2ccccc2F)n1C1CC1 (centres undefined)	-3.2	3.0	-2.3	/	7.8	-0.1	9.3	6.6	-1.4	22.3
CSc1nnc(-c2ccccc2SC)o1	-2.3	-4.5	6.4	/	0.3	0.6	0.8	-6.5	-0.1	-3.8
CCc1nc(NC(=O)c2sc(C)nc2C)sc1C(=O)OC	-0.8	-10.5	0.4	-0.9%	-1.4	-2.9	-7.1	-0.7	-1.5	12.3

Next section
SMILES	Beta cell apopt	T cruzi inh	RanGTP-Imp inh	Vif A3G	AF4-AF9 inh	A1 inh	rRNA inh HTS	rRNA inh HTS OD600	rRNA inh HTS RFP	Calb FLC
COc1ccc(C2NC(c3ccc(OC)cc3)C(c3ccccc3)C(=O)C2c2ccccc2)cc1 (centres undefined)	3.1	1.1	3.1	/	/	1.6	/	/	/	28.1
O=c1c(C(c2ccccc2)c2c(O)sc3ccccc3c2=O)c(O)sc2ccccc12	-5.5	-11.3	19.2*	-8.9%&-1.9%	-3.2	0.7	/	/	/	-5.9
Cc1ccc(N(CC(=O)Nc2c(C)n(C)n(-c3ccccc3)c2=O)S(C)(=O)=O)cc1C	-0.9	-0.2	?	31.5%	/	0.4	/	/	/	6.1
O=C(Oc1ccccc1C(=O)Oc1ccccc1)c1cccnc1	4.2	-3.4	3.2	/	-0.5	-4.8	/	/	/	-10.5
COc1ccc(-c2nnc(NC(=O)c3cc(C)on3)s2)cc1	-4.3	-0.1	-4.8	-11.0%	/	1.1	/	/	/	?
NS(=O)(=O)c1ccc(CNC(=O)Cc2ccccc2F)cc1	-1.0	-13.0	-0.5	12.6%	-1.5	-0.5	4.6	5.3	-1.9	-4.0
O=C1CC(c2ccc(Cl)cc2)CC(=O)C1CS(=O)(=O)c1ccccc1 (centres undefined)	-8.2	3.5	3.3	21.1%	-0.5	0.7	-15.2	-17.4	-1.7	-10.4
Cc1ccc(N/C(SCc2ccccc2C)=C(/C#N)C(=O)NCc2ccco2)cc1C	1.4	60.4*	1.6	-2.4%	/	0.1	/	/	/	-0.3
Cn1cc2ccc([N+](=O)[O-])cc2n1	-5.9	-11.9	0.5	-8.2%	/	0.7	4.0	0.0	2.5	-2.3
O=C(CN(C(=O)C1CSC(=O)C1)c1ccc(F)cc1)NCc1ccc2c(c1)OCO2 (centres undefined)	0.9	-4.3	-1.5	/	1.2	0.3	2.8	-3.1	-0.1	-7.0
CCc1cc(C(=O)c2ccc(OC)cc2)c(N)s1	/	11.6	-1.3	-1.1%	4.3	1.4	-12.1	-6.0	2.0	-19.0
O=C(CCN1C(=O)c2ccccc2C1=O)OCn1nnc2ccccc2c1=O	/	-8.1	2.0	-4.8%	/	0.6	/	/	/	16.2
O=C(CCC(=O)N(CC(=O)NC1CCCC1)Cc1ccccc1)Nc1nccs1	-2.3	4.2	-0.8	2.7%	?	-0.2	10.7	4.8	0.9	-0.9
Cc1ccoc1C(=O)Nc1cccc2ccccc12	0.0	0.3	-4.8	/	0.2	?	-10.9	-8.6	1.9	3.6
CC(C)(C)OC(=O)N1CCC(c2c(C(=O)O)cnn2-c2ccccc2Cl)CC1	-1.9	-11.3	2.3	4.1%	/	0.5	/	/	/	2.4
COc1ccc(OCC(=O)NNC(=S)NC(=O)C2CCCCC2)cc1	/	-6.2	4.7	5.6%	-1.5	-0.6	-23.9	-16.9	-3.0	34.9
N#C/C(=N\Nc1ccc(Cl)cc1)C(=O)c1ccsc1	64.1	-33.5	0.3	-6.2%	1.9	-0.4	-13.8	-10.6	-2.4	-5.0
CCCCN(C(=O)CCC(=O)Nc1cc(C)on1)C(C(=O)NC1CCCC1)c1ccc(F)cc1 (centres undefined)	0.2	-8.2	0.7	/	5.9	1.1	3.0	1.3	-3.7	1.9
CCOc1ccc(CNC(=S)NCc2ccc(OCC)cc2)cc1	0.3	?	1.4	-0.5%	-0.4	0.4	13.9	-0.1	-3.1	-1.8
COc1cccc(-c2cc(C(=O)Nc3c(C)n(C)n(-c4ccccc4)c3=O)no2)c1	-4.0	13.7	-0.1	72.5µM*	/	0.9	/	/	/	39.0
Cn1c(SCC(=O)Nc2ccc3c(c2)OCCO3)nnc1-c1cccnc1	-5.4	-7.3	0.9	-1.1%	4.0	0.5	5.1	6.0	-3.5	-4.7
CCOC(=O)C1=C(C)Nc2ccccc2N=C1NC(=O)C(CC)c1ccccc1 (centres undefined)	-11.8	-22.8	-2.5	/	-3.6	0.3	-6.3	14.8	-2.4	1.9
CCOC(=O)N1CCN(C(=O)CC(=O)Nc2ccc3nc4n(c(=O)c3c2)CCCCC4)CC1	4.7	-18.7	3.6	30.9%	/	0.4	/	/	/	-9.2
O=C(Nc1ccccc1)c1nc[nH]c1C(=O)NCCCCNC(=O)c1[nH]cnc1C(=O)Nc1ccccc1	0.4	/	/	/	-2.0	-1.0	5.8	5.4	0.5	/
NC(=O)CNC1CC(=O)N(CCc2ccccc2)C1=O (centres undefined)	-1.0	-9.7	6.1	2.2%	/	1.7	/	/	/	-8.6

(next part)
SMILES	Beta cell apopt	T cruzi inh	RanGTP-Imp inh	Vif A3G	AF4-AF9 inh	A1 inh	rRNA inh HTS	rRNA inh HTS OD600	rRNA inh HTS RFP	Calb FLC
O=C(NC1CCCc2ccccc21)c1ccc(Br)cc1 (centres undefined)	-4.6	-20.4	0.1	10.5%	0.5	1.2	9.9	16.8	-0.6	-15.1
O=[N+]([O-])c1cccc(C2CC(c3ccccc3)=NN2c2ccccc2)c1 (centres undefined)	3.7	47.5	0.3	/	8.4	-0.2	-10.9	-11.9	-6.2	-4.2
Cc1ccc(S(=O)(=O)N2CCCN(c3nc4cc(C)ccc4cc3C#N)CC2)cc1	12.4	32.8	32.0*	-15.7%	/	-0.3	/	/	/	6.5
c1ccc(-n2cnc3cc(NCc4cccs4)ccc32)cc1	-1.6	-10.0	?	4.6%	/	-0.5	/	/	/	10.3
COc1ccccc1/C=N/Nc1cc(N(C)C)nc(N(C)C)n1	-0.5	43.5	6.6	/	29.0*	0.2	-1.4	1.3	4.4	5.6
CNS(=O)(=O)c1ccc(NC(=O)c2ccc(Cl)cc2Cl)cc1	/	-16.6	2.8	?	3.7	1.2	-21.2	-21.3	-5.8	-7.1
CC(=O)c1ccc(OCCCC(=O)Nc2cccc(S(=O)(=O)N(C)C)c2)cc1	6.2	7.7	-1.9	12.7%	/	0.2	/	/	/	-9.1
COc1ccc(CNC(=O)C2(CC(=O)NC(C)(C)C)CCCC2)cc1	-1.4	7.5	2.5	-4.7%	-0.4	0.3	9.4	12.5	3.8	-6.2
COc1ccc(CC(=O)OCC(=O)NC2CCCC(C)C2C)cc1OC (centres undefined)	-1.1	/	/	-8.7%	-4.0	-1.2	2.1	12.2	-1.6	/
